Source: PubChem
RanGTP-Imp inh: inhibitors of RanGTP-importin-beta interaction, primary screen, biochemical, FRET, CFP-Ran, YFP-importin-beta, homogeneous | cell-free CFP-Ran/YFP-importin-beta FRET ratio | inhibition, % (test concentration not listed) | hit rate 1.1% among 300,000 | AID 2216;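 active means most replicates above 15%; inconclusive means exactly half above 15%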;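 further: 0% = DMSO wells and 100% = Ran loaded with GDP instead of GTP; wells of about 40 µL received 100 nL stock; the first replicate is given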
rRNA inh HTS: inhibits bacterial ribosomal RNA function over humanized ribosomes | E. coli WT GFP vs humanized-ribosome RFP mutants, fluorescence, 24 h; hits give low values; DMSO median 0, no signal -100 | GFP signal change (wild-type ribosome), % (no concentration beside the values) | hit rate 1.6% among 350,000 | AID 720706;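 active means significant combined selectivity score with lowered wild-type GFP, culture density cut under 30%, mutant RFP and density less affected; inactive means any of these conditions unmet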; further: one replicate is shown; some compounds called inactive have numbers as strong as hits
AF4-AF9 inh: MLL-AF4/AF9 protein interaction inhibition; P42568; AlphaScreen, biotin-AF4 peptide binding to FLAG-AF9; inhibition, % at 10 µM; hit rate 0.47% among 350,000; AID 651704;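 active means every replicate reaching a set inhibition limit, whatever the replicate mean, cut at about 25% in these data; inconclusive means mean inhibition reaches that limit but some replicates miss it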;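 further: 0% = plate neutral control median and 100% = total signal loss; the record names both 10 and 1 µM as test concentration; the first replicate is given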
Target sequence (P42568 whole entry, looked up): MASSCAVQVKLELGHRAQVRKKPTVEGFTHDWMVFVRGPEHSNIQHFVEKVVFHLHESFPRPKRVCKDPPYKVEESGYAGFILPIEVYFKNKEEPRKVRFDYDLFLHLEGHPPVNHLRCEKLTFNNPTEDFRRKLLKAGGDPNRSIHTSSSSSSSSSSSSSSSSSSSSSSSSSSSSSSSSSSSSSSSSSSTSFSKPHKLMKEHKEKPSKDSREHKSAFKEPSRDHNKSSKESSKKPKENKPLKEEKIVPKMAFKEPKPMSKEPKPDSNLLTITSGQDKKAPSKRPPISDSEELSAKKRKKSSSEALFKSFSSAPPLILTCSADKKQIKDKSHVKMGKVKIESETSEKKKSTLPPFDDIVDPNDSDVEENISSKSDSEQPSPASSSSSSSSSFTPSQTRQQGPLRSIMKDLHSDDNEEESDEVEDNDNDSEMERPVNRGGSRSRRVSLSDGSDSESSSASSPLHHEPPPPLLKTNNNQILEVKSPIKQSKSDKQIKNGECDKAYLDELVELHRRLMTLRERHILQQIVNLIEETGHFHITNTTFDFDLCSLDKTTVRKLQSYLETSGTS
Beta cell apopt: blocks beta cell apoptosis | INS-1E cytokine-induced death, ATP luminescence, 48 h; percent of positive-control rescue, neutral wells zero | protection from apoptosis, % (no concentration beside the values) | hit rate 0.8% among 300,000;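 active means all replicates at 75% or more, or half of them and the mean; inconclusive means half reach 75% but not the mean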;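 further: 0% = cytokine-treated negative control wells and 100% = positive control rescue; higher means more ATP so stronger rescue from cytokine killing; wells of about 40 µL received 100 nL stock; the first replicate is given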
T cruzi inh: blocks replication of Trypanosoma cruzi; hit rate 1.4% among 300,000; AID 1885; T. cruzi beta-gal in NIH3T3, luminescence, 90 h; inhibition, % (test concentration not listed);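 active means mean inhibition across valid replicates above about 55%, limit read from the data; inconclusive means mean below that limit but half or more replicates reach it; inactive means mean below it, under half of replicates reach it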;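 further: signal also drops with host cell toxicity which is not excluded here; 0% = plate median of DMSO wells and 100% = zero luminescence signal; higher percent means less beta-gal luminescence so fewer parasites; stock transfer was 50 nL into about 50 µL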
Vif A3G: HIV-1 Vif–A3G interaction blockers – biochemical, TR-FRET, GST-Vif 1-94, biotin-A3G peptide, dose response retest, primary screen (AID 1117319); TR-FRET GST-Vif / biotin-A3G peptide binding; higher % means a stronger effect; test concentration not given here; strong numbers were not always called active; inhibition, %, or IC50 in µM where a hit was titrated; hit rate 0.57% among 260,000;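 active means above the screen mean plus three standard deviations and confirmed in dose response; inconclusive means results disagree or hit not tested in dose response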;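 further: Vif residues 1-94 fused to GST binding biotinylated APOBEC3G peptide 110-148; 0% = full assay without inhibitor and 100% = GST in place of GST-Vif; retest series ran down from 100 µM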
A1 inh: inhibitors of the anti-apoptotic protein A1, read as caspase activation. AID 2462. hit rate 0.066% among 330,000. caspase activation, % (test concentration not listed). MEF A1-2A-BIM cells, Caspase-Glo 3/7 luminescence, 3 h; percent of clofoctol response, vehicle zero;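 active means over half of replicate activation scores above 10%, or exactly half above 10 with the replicate mean above 10; inconclusive means replicate mean below 10 yet half the replicates above 10; inactive means over half of replicates below 10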;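 further: wells of about 30 µL received 50 nL stock; many hits fall short of the cut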
Calb FLC: affects C. albicans growth with fluconazole. hit rate 0.57% among 300,000. C. albicans CaCi-2 (fluconazole-resistant clinical isolate) + fluconazole, Alamar Blue growth, 48 h. growth inhibition, % (concentration not given with the values);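 active means most replicates above 75%; inconclusive means exactly half above 75%; inactive means most below 75%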;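 further: all wells also contain fluconazole at 8 µg/ml as a sub-toxic cotreatment; 0% = median of DMSO wells and 100% = median of geldanamycin control wells; wells of about 8 µL received 7.5 nL stock; the first replicate is given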
rRNA inh HTS OD600: further read-out of rRNA inh HTS, marked with its call; OD600 change, %; measured here: OD600 growth;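 optical density of the mix in the first replicate; 0 = DMSO median and -100 = no signal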
rRNA inh HTS RFP: recorded beside rRNA inh HTS, whose call it bears; RFP signal change, %; measured here: RFP humanized mutant strains;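 first replicate; 0 = DMSO median and -100 = no signal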
* = called active by the depositor; ? = inconclusive; . = no result given. Only part of the results is shown; rates above refer to the full screens.

# | mol | RanGTP-Imp inh | rRNA inh HTS | rRNA inh HTS OD600 | rRNA inh HTS RFP | AF4-AF9 inh | Beta cell apopt | T cruzi inh | Vif A3G | A1 inh | Calb FLC
1 | Cc1ccnc(NS(=O)(=O)c2cc(C(F)(F)F)ccc2Cl)c1 | 1.2 | 14 | 1 | -0.1 | 0.2 | 0 | -10 | . | -0.3 | -6
2 | O=C(Nc1ncc(Cc2cccc([N+](=O)[O-])c2)s1)c1ccco1 | -0.1 | -4 | 1 | -15 | 0.5 | 1 | 11 | 9% | 0.2 | -4
3 | Cc1cc(C)c(NC(=O)COc2ccc(-n3cnnn3)cc2)c(C)c1 | 2.6 | 17 | 17 | 5.8 | -2.0 | -4 | -6 | 10% | -0.2 | -2
4 | O=C1CSC(c2ccccn2)N1c1ccccc1F (centres undefined) | 9.9 | 11 | 5 | -1.3 | 1.1 | -8 | -10 | 13% | -0.3 | 2
5 | Cc1csc(=O)n1CC(=O)OCC(=O)NC(C)c1ccc(F)cc1 (centres undefined) | . | 7 | 7 | -2.4 | 3.0 | -4 | . | -8% | 0.0 | .
6 | CCN1C(=O)CSC1=Nc1ccccc1Cl | -1.7 | 7 | 5 | -1.4 | -4.2 | -7 | -5 | -1% | 0.1 | 21
7 | COC(=O)c1[nH]c2ccccc2c1NC(=O)c1c(F)cccc1F | 4.7 | 1 | -12 | -3.9 | -5.8 | 1 | -8 | -8% | 1.1 | 2
8 | COC(=O)c1cc(Br)c(=O)n(CC(C)C)c1 | 4.9 | . | . | . | . | -3 | -10 | 5% | 0.5 | 5
9 | Cc1cccc(NC(=O)c2ccc(Cl)c(S(=O)(=O)N3CCCCC3)c2)n1 | -4.7 | -31 | -48 | -6.0 | 8.8 | -1 | 30 | -16% | -1.0 | -1
10 | Cc1c(Cl)cccc1NC(=O)CCC(=O)c1cccs1 | 1.2 | -4 | -10 | 2.3 | 1.7 | . | 2 | -15% | 0.6 | 12
11 | N#Cc1c(NC(=S)NC(=O)c2ccccc2)sc2c1CCC2 | 4.6 | . | . | . | -1.1 | 0 | -4 | . | 0.8 | 1
12 | O=C(COc1ccc2c3c(c(=O)oc2c1)CCC3)N1CCN(c2ccc(F)cc2)CC1 | 1.6 | 8 | 3 | -1.1 | -2.8 | 5 | 17 | . | 0.7 | 13
13 | COc1ccc(OC)c(S(=O)(=O)Nc2cnc3ccccc3c2)c1 | 2.2 | . | . | . | . | 0 | 0 | >100µM* | 0.3 | -1
14 | C/C(=N\NC(N)=S)C12CC3CC(CC(C3)C1)C2 | ? | . | . | . | . | 10 | 50 | 4% | -0.1 | 18
15 | O=c1[nH]c(N2CCN(c3ccccc3)CC2)nc2c1CCC2 | 7.8 | . | . | . | . | 1 | 2 | -6% | 0.6 | 1
16 | COc1ccc2cc(C(=O)N3CCN(Cc4ccc5c(c4)OCO5)CC3)[nH]c2c1 | 3.7 | 6 | 6 | 6.0 | -1.5 | -6 | 16 | -7% | -1.7 | 0
17 | CCn1cc(C(=O)NCCCN2CCN(C)CC2)c(=O)c2cc(S(=O)(=O)N3CCc4ccccc4C3)ccc21 | 1.4 | 25 | 15 | 5.0 | -0.3 | 7 | 8 | 10% | 1.6 | -20
18 | CC1CCN(C(=O)COC(=O)CCC(=O)c2ccc(F)cc2)CC1 | . | -1 | -7 | 0.6 | 0.3 | -3 | . | . | 0.0 | .
19 | CCC(C)(C)n1nnnc1C(c1ccccc1OC)N1CCSCC1 (centres undefined) | ? | -11 | -5 | -2.1 | 5.9 | . | -15 | -3% | -0.5 | 30
20 | COC(=O)CNC(=O)COC(=O)c1cc(Cl)cc(Cl)c1N | -3.8 | . | . | . | . | -5 | -5 | 13% | -0.5 | 52
21 | COc1cc(/C=C2\SC(N)=NC2=O)cc(Cl)c1O | -24 | -1 | 2 | 0.1 | -5.5 | 7 | 0 | 0% | 0.5 | -9
22 | O=C(NCC1CCCO1)C(=O)N/N=C/c1cccc(Cl)c1 (centres undefined) | 5.4 | 14 | 10 | -2.7 | 0.5 | . | -8 | 19% | -0.1 | -4
23 | COc1ccc(NC(=O)CCOc2ccc(C)cc2)cc1S(=O)(=O)N1CCOCC1 | . | 0 | -4 | 0.7 | -8.9 | 0 | . | 0% | -0.2 | .
24 | CCn1c(N2CCN(Cc3ccc([N+](=O)[O-])cc3)CC2)nc2ccccc21 | 10 | -5 | -1 | -0.6 | 8.8 | 12 | 19 | -1% | 0.6 | 44
25 | O=C(NCCN1CCN(c2ccccc2F)CC1)C1c2ccccc2C(=O)N2CCc3ccccc3C12 (centres undefined) | -5.1 | . | . | . | . | -2 | 5 | -1% | 0.8 | 5
26 | CC1CCN(C(=O)CNC(=O)Cn2ccc3ccccc3c2=O)CC1 | 4.4 | 3 | 5 | 1.6 | -2.5 | . | 3 | 6% | -0.1 | -4
27 | CCN(CC)S(=O)(=O)c1cc(C(=O)Nc2ccccc2C(=O)O)ccc1OC | -1.7 | -16 | -5 | -10 | 0.1 | . | -13 | -2% | -0.9 | -4
28 | CC/C(=N\NC(=O)CSCc1ccccc1Cl)c1ccc2c(c1)OCCO2 | 0.2 | . | . | . | . | -4 | -7 | 1% | 0.4 | 12
29 | CCCOc1ccc(CNC(=S)N/N=C/c2ccc([N+](=O)[O-])cc2)cc1 | 3.1 | . | . | . | . | 7 | 61* | -2% | 1.2 | 13
30 | OC(CNc1ncnc2sccc12)c1ccccc1 (centres undefined) | 8.6 | 17 | 14 | 2.1 | -7.4 | 61 | 1 | -2% | -2.6 | 0
31 | COc1ccc(C2(c3ccc(OC)cc3)NC(=O)N(CC(=O)N(C)c3ccccc3)C2=O)cc1 | 3.1 | 0 | -5 | 0.0 | 1.6 | -2 | -4 | . | 0.3 | 39
32 | CC(/C=C/c1ccc2c(c1)OCO2)=N/NC(=O)c1ccc(C)nc1 | -2.2 | . | . | . | . | -4 | -4 | 6% | -0.7 | -4
33 | O=C(COc1cccc2cccnc12)Nc1ccccc1N1CCOCC1 | -1.2 | -18 | -20 | -6.2 | -1.0 | -14 | -9 | -11% | 1.4 | 20
34 | CCOC(=O)CCSc1nc(C)cc(C(F)(F)F)c1C#N | 3.7 | . | . | . | . | -2 | 9 | 25% | -0.5 | 1
35 | COc1ccc(C(CNC(=O)CNC(=O)c2cccc(Cl)c2)N2CCCC2)cc1 (centres undefined) | . | 11 | 7 | 0.8 | -3.4 | -1 | . | -1% | 0.0 | .
36 | Cc1nc([N+](=O)[O-])cn1Cc1cccc2ccccc12 | 3.9 | -12 | -7 | 14 | 5.7 | -9 | -1 | . | -0.3 | 9
37 | COC1(OC)N=C(NC(=O)Nc2ccccc2)C2(C#N)C(c3ccccc3)C12C#N (centres undefined) | -7.3 | . | . | . | . | -7 | -9 | 9% | 0.4 | 3
38 | COC(=O)CC(NS(=O)(=O)c1cccs1)c1ccccc1Cl (centres undefined) | -2.0 | . | . | . | . | 0 | -3 | 0% | -0.2 | 22
39 | CCCOc1ccc(C(C)=O)cc1CSc1nc(O)cc(=O)[nH]1 | 1.3 | . | . | . | . | 0 | -14 | 0% | 0.8 | -1
40 | N#C/C(=C/c1ccc([N+](=O)[O-])cc1)C(N)=O | -3.9 | 19 | 18 | 0.3 | -1.3 | 3 | -10 | -2% | 1.1 | -1
41 | O=C(c1ccc2c(c1)OCO2)N(Cc1cccs1)C1(C(=O)NC2CCCCC2)CCCCC1 | 1.4 | . | . | . | . | 25 | 16 | 6% | 0.4 | 4
42 | COc1ccc(/C=N/NC(=O)c2cccc3ccccc23)c(OC)c1OC | -4.6 | 0 | 1 | 8.3 | 0.2 | . | 0 | . | 0.8 | 5
43 | COc1cccc(N2CCN(C(=O)CCCCCNc3nc(=S)[nH]c4ccccc34)CC2)c1 | -1.6 | -23 | -23 | -0.7 | 2.4 | 29 | 3 | -13% | -1.1 | -3
44 | CN1CC(=O)N/C1=N\C(=O)Nc1ccc2c(c1)N(C)C(=O)CS2 | 5.2 | . | . | . | . | -12 | -6 | 2% | 1.0 | -2
45 | Cc1ccc(C(C)C)cc1S(=O)(=O)NCc1ccccn1 | 2.5 | -6 | -8 | -3.9 | 2.0 | -2 | 2 | -1% | 0.4 | -2
46 | Cc1cccc(NC(=O)COC(=O)c2cc3ccccc3oc2=O)c1 | -1.7 | 10 | 4 | -3.6 | -3.4 | 1 | 2 | -2% | 0.3 | 30
47 | CN(C(=O)c1ccccc1C(=O)c1ccccc1)C1CCS(=O)(=O)C1 (centres undefined) | 2.9 | 5 | 2 | -1.8 | -22 | -5 | 7 | -2% | 0.5 | 10
48 | O=C(NCc1cccnc1)/C(=C/c1ccc([N+](=O)[O-])cc1)NC(=O)c1ccccc1 | . | -11 | 6 | -3.3 | -3.1 | 0 | . | 0% | -2.4 | .
49 | O=C(COC(=O)c1cc(Br)ccc1O)NCC1CCCO1 (centres undefined) | 2.9 | 0 | -6 | -1.9 | -18 | 2 | -7 | 3% | -0.3 | 14
50 | Cc1cccc2c1NC(=O)C21N2CCCC2C(C(=O)c2ccc3ccccc3c2)C12C(=O)Nc1ccccc12 (centres undefined) | -3.9 | . | . | . | . | 2 | 9 | ? | -0.5 | -5

Carrying on:
# | mol | RanGTP-Imp inh | rRNA inh HTS | rRNA inh HTS OD600 | rRNA inh HTS RFP | AF4-AF9 inh | Beta cell apopt | T cruzi inh | Vif A3G | A1 inh | Calb FLC
51 | COc1ccc(CNC(=O)NS(=O)(=O)c2ccc(C)cc2)cc1 | -3.8 | -3 | -3 | -16 | -1.8 | 6 | 7 | . | 0.5 | -8
52 | CSc1nc(=S)cc(C)[nH]1 | -3.3 | 14 | 0 | 35 | 1.7 | -14 | -9 | . | 1.2 | 4
53 | N#Cc1ccsc1NC(=O)C1CCCN1S(=O)(=O)c1cccs1 (centres undefined) | 2.5 | -1 | 7 | -2.4 | 0.2 | -4 | -11 | -6% | -0.5 | -6
54 | CCC(C)(C)NC(=O)c1ccc(Sc2nncn2C)c([N+](=O)[O-])c1 | -3.0 | 21 | 8 | -2.2 | 5.0 | -10 | 2 | 11% | 1.0 | 1
55 | COC(=O)c1cc(NC2c3ccccc3C(=O)N2c2ccc(Cl)cn2)cc(C(=O)OC)c1 (centres undefined) | -6.7 | 8 | 14 | -2.6 | -2.1 | 11 | -3 | 25% | -0.1 | 8
56 | Cc1ccc(NC(=O)CN2C(=O)NC(C)(c3ccccc3)C2=O)c(C)c1 (centres undefined) | ? | 1 | 1 | -1.5 | -6.1 | . | 0 | -1% | 1.0 | -23
57 | C=CCn1c(C)c(C(C)=O)c(N2CCCC2)nc1=S | -0.6 | . | . | . | . | 0 | -15 | 2% | -0.3 | -4
58 | Cc1ccc(C(=O)NCCN(C)C)c(C)c1 | 7.0 | . | . | . | . | -7 | 2 | 26% | 0.7 | -2
